NPYLR7 ag – agonists of mosquito NPYLR7 receptor, primary screen, cell-based, Aedes aegypti, calcium fluorescence, mosquito biting behavior; Aedes aegypti neuropeptide Y-like receptor 7 (NPYLR7); HEK293T NPYLR7/Galpha15, GCaMP6s calcium fluorescence; activation, % at 10 µM; 0.15% of 270,000 active; AID 1259423, 2018; in the data active = activation above about 40%;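 also: 0% = vehicle and 100% = reference agonist at the receptor; some compounds past the cut are filed as inactive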
NPYLR7 ag max-min – recorded beside NPYLR7 ag, whose call it bears; activation, %; measured here: Max-Min RFU normalised activation; some inactives read as strong as hits;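 span of the calcium signal over five minutes; 0% = vehicle and 100% = native peptide agonist; compound fluorescence can raise it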
* hit, by the source's call; & = joins results of further samples.

The line under a structure holds: NPYLR7 ag | NPYLR7 ag max-min
(1) CC1C(=O)N(c2ccc(Oc3ccccc3)cc2)CCN1C(=O)c1ccc(F)cc1 (stereo unspecified)
→ 0 | 4
(2) CCCn1cnnc1CNCC(=O)Nc1cnccn1
→ 1 | -4
(3) COc1cc(NC(=O)c2ccco2)c(C(=O)NC2CC2)cc1OC
→ -4 | -3
(4) COCCN(Cc1cnn(C)c1)C(=O)c1ccc(Cl)s1
→ 1 | -9
(5) O=C(CSc1ccc2nc(-c3ccccc3)cn2n1)Nc1ccccc1
→ 6 | 5
(6) Cc1ccc2c(c1)NC(=O)C2CC(=O)NCCN1CCCOC1=O (stereo unspecified)
→ 11 | 1
(7) COC(=O)Cn1c(=O)c2c(nc3n(Cc4ccco4)c(C)cn23)n(C)c1=O
→ 4 | 2
(8) O=C(Nc1ccccc1F)N1CCc2nc(-c3ccccc3)nc(N3CCCCC3)c2C1
→ 22 | 21
(9) CC1(C)OC(=O)CC1C(=O)N1CCCC2(CCc3ccccc32)C1 (stereo unspecified)
→ 2 | 4
(10) C=C(C)C(O)(C(=C)C)c1ccc(CN(CCCOC)Cc2ccc(C)o2)o1
→ 14 | 24
(11) CCc1cccc(C)c1NC(=O)N1CCN(S(=O)(=O)C2CCS(=O)(=O)C2)CC1 (stereo unspecified)
→ -1 | 16
(12) O=C(Nc1cccc(F)c1)N1CCC(Cn2ccnn2)CC1
→ -18 | -18
(13) COCCNC(=O)C1CCCN(C2CCN(Cc3ccsc3)CC2)C1 (stereo unspecified)
→ -4 | -11
(14) O=C1NC(=O)C(CCCc2ccccc2)(C2CCNCC2)N1 (stereo unspecified)
→ 31 | 23
(15) CCCc1ccccc1N1C(=O)CSC1c1cccc(NC(=O)C2CCCCC2)c1 (stereo unspecified)
→ -1 | 2
(16) CC1CN(C(=O)c2ccc(COCC(F)(F)F)o2)CC(C)O1 (stereo unspecified)
→ 15 | 7
(17) OC1CCN(c2ccnc(N3CCC4(CCCO4)CC3)n2)C1 (stereo unspecified)
→ -1 | -3
(18) CC(CC(=O)Nc1cc(F)c(F)cc1F)NC(=O)OC(C)(C)C (stereo unspecified)
→ 2 | -2
(19) Cc1cccc(C)c1OC1CN(c2ccnc(C(=O)N3CCOCC3)c2)C1
→ 6 | 2
(20) CC1(C)Cc2c(c(-c3ccco3)[nH]c(=O)c2C#N)CO1
→ 12 | 5
(21) OCC1OC(n2nnc3ccccc32)C(O)C(O)C1O (stereo unspecified)
→ 1 | 0
(22) COc1ccc(-c2ccc(C(=O)NCCc3cccc(Cl)c3)s2)c(OC)c1OC
→ 4 | -1
(23) CCc1cnc(C(C)NC(=O)Cc2ccccc2OC)s1 (stereo unspecified)
→ -2 | 27
(24) O=C1CC(c2ccccc2)CC2=Nc3ccccc3NC(c3ccc([N+](=O)[O-])cc3)C12 (stereo unspecified)
→ -3 | -3
(25) C=CCN(Cc1csc(COc2cccc(C)c2C)n1)C(=O)COC
→ 3 | -7
(26) CCn1c(C2CCN(C(=O)c3csc(SC)n3)CC2)nn(C)c1=O
→ 6 | 4
(27) COc1ccc(S(=O)(=O)Nc2ccc(S(C)(=O)=O)cc2)cc1Br
→ 6 | 5
(28) c1cncc(CN(Cc2ccsc2)Cc2cccc3c2OCO3)c1
→ 23 | 10
(29) Cc1ccccc1NS(=O)(=O)c1cccc(C(=O)Nc2ccccc2C(=O)O)c1
→ -19 | -24
(30) Cc1ccc2cc(CCNC(=O)C(C)C)c(=O)[nH]c2c1C
→ -1 | -5

Gathered by group, the compounds so far containing a halogen
The line under a structure holds: NPYLR7 ag | NPYLR7 ag max-min
(1) CC1C(=O)N(c2ccc(Oc3ccccc3)cc2)CCN1C(=O)c1ccc(F)cc1 (stereo unspecified)
→ 0 | 4
(4) COCCN(Cc1cnn(C)c1)C(=O)c1ccc(Cl)s1
→ 1 | -9
(8) O=C(Nc1ccccc1F)N1CCc2nc(-c3ccccc3)nc(N3CCCCC3)c2C1
→ 22 | 21
(12) O=C(Nc1cccc(F)c1)N1CCC(Cn2ccnn2)CC1
→ -18 | -18
(16) CC1CN(C(=O)c2ccc(COCC(F)(F)F)o2)CC(C)O1 (stereo unspecified)
→ 15 | 7
(18) CC(CC(=O)Nc1cc(F)c(F)cc1F)NC(=O)OC(C)(C)C (stereo unspecified)
→ 2 | -2
(22) COc1ccc(-c2ccc(C(=O)NCCc3cccc(Cl)c3)s2)c(OC)c1OC
→ 4 | -1
(27) COc1ccc(S(=O)(=O)Nc2ccc(S(C)(=O)=O)cc2)cc1Br
→ 6 | 5

Continued:
The line under a structure holds: NPYLR7 ag | NPYLR7 ag max-min
(31) CCNC(=O)c1cccc(-c2ccccc2CO)c1
→ -4 | -6
(32) CC(C)=C1C2C=CC1C1C(=O)N(c3cc(C(F)(F)F)ccc3Cl)C(=O)C21 (stereo unspecified)
→ 1 | -1
(33) CCc1cc2c(=O)n(Cc3ccco3)c(SCC(=O)c3ccccc3)nc2s1
→ 8 | 7
(34) COc1cccc(OCC(=O)N2CCC(CC(C)C)C2)c1 (stereo unspecified)
→ 9 | 2
(35) COc1ccc(N2C(=O)CN(CCC3=CCCCC3)C3CS(=O)(=O)CC32)cc1Cl (stereo unspecified)
→ 0 | 0
(36) Cc1ccc(S(=O)(=O)N(c2c(C)cccc2C)C(F)F)cc1
→ 8 | 8
(37) Cc1ccc2c(c1)N(Cc1ccc(C(=O)NC(C)C)o1)C(=O)CO2
→ -3 | -5
(38) CC(=O)OC(C)(C)C(=O)N1CCN(c2nc3nccc(-c4cccnc4)n3n2)CC1
→ 5 | 0
(39) C=CCN(Cc1nccn1Cc1cccc(Cl)c1)C(=O)c1ccco1
→ -6 | -14
(40) Cc1ccc(Oc2c(CN(CC(O)COc3ccccc3)C(C)C)c(-c3ccccc3)nn2C)cc1 (stereo unspecified)
→ -4 | 3
(41) CN(C)C(=O)N1CCC(C(=O)N2CCCC(C(=O)c3cccc4ccccc34)C2)CC1 (stereo unspecified)
→ 5 | 2
(42) CC(=O)N1CCC(C(=O)NCCc2csc(C(C)C)n2)CC1
→ 9 | 7
(43) COC(=O)c1ccc(CSc2nc(N)c(NC(=O)c3ccc(F)c(F)c3)c(=O)[nH]2)o1
→ 1 | 0
(44) CC(C)CCNC(=O)CSc1nccn(-c2ccc(F)c(F)c2)c1=O
→ 0 | 6
(45) C=CCNC(=O)C(NC(=O)c1cccs1)C1CCN(S(=O)(=O)c2ccc(OC)cc2)CC1 (stereo unspecified)
→ -10 | -2
(46) CCCn1cnnc1CNC(=O)C1CCC(=O)N(CCc2ccc(OC)cc2)C1 (stereo unspecified)
→ 2 | 2
(47) NC(=O)C1Cc2ccccc2N1C(=O)c1ccccc1S(=O)(=O)C(F)F (stereo unspecified)
→ 1 | 0
(48) C=CCOCC(O)CN(Cc1ccc(F)cc1)Cc1ccsc1 (stereo unspecified)
→ 20 | 23
(49) CC(C)N(CC(=O)N(Cc1ccccc1)Cc1cccn1Cc1ccc(F)cc1)C(=O)/C=C/c1ccccc1
→ -6 | 4
(50) O=C(CCN(CCCN1CCOCC1)c1nc(C2CC2)nc2ccccc12)N1CCN(c2ccccc2F)CC1
→ -32 | -19
(51) O=[N+]([O-])c1cccc(-c2nc(-c3cccnc3)no2)c1
→ 3 | 9
(52) Cc1sc2ncnc(OCC(=O)NCCC(C)C)c2c1C
→ -3 | -6
(53) Cc1ccc(CN(Cc2ccc(F)cc2)C(=O)CN(C(=O)C2CCCC2)C2CC2)s1
→ -15 | -11
(54) Nc1ccccc1C1SCC(=O)N1c1ccc2c(c1)OCO2 (stereo unspecified)
→ 13 | 21
(55) O=C(c1cc(C2CC2)on1)N(Cc1ccco1)Cc1ccco1
→ 6 | 4
(56) CCCN(C1=NC2CS(=O)(=O)CC2S1)c1ccccc1 (stereo unspecified)
→ 0 | 0
(57) CCn1nc(C)c(NC(=O)CNCc2ccc(OC)c(F)c2F)c1C
→ 11 | 10
(58) O=C(NC(C(=O)N1CCOCC1)C1CCN(C(=O)Cc2ccccc2)CC1)c1cccs1 (stereo unspecified)
→ 6 | 10
(59) Cc1ccc2nc(NC(=O)CSc3nnc(-c4ccc(=O)n(C)c4)n3C)sc2c1
→ 5 | 6
(60) CCn1cc(CN(C)c2nc(C)cc(C3CCC3)n2)cn1
→ -1 | -4

(list continues)
entry	structure	NPYLR7 ag	NPYLR7 ag max-min
61	O=c1oc2ccccc2c(N2CCCC2)c1[N+](=O)[O-]	-3	-2
62	CC(C)COC1(c2ccccc2)OC(=O)c2ccccc21 (stereo unspecified)	-2	8
63	C=C1c2ccccc2C(=O)N1C(C)C(=O)N(C)Cc1ccccc1O (stereo unspecified)	4	1
64	O=C(O)c1cc(Br)cc(S(=O)(=O)NCc2cccnc2)c1	4	1
65	Cc1c(S(=O)(=O)NCc2ccccc2)c(=O)n(C)c(=O)n1C	2	-1
66	NS(=O)(=O)c1ccc(CCN2CC(=O)N(c3ccccc3)C3CS(=O)(=O)CC32)cc1 (stereo unspecified)	3	3
67	COc1ccccc1Nc1nc2c(S(=O)(=O)c3ccc(C)cc3)nnn2c2ccsc12	9	11
68	CC1Cc2cc(C(=O)CN3C(=O)NC(C)(c4ccc(C(C)(C)C)cc4)C3=O)ccc2N1S(C)(=O)=O (stereo unspecified)	1	5
69	CC(Cl)C(=O)N1CCc2nc(-c3ccccc3)nc(N3CCCCC3)c2C1 (stereo unspecified)	-5	3
70	COc1ccccc1OCC1CN(C(=O)c2cccc(C(C)C#N)c2)CCO1 (stereo unspecified)	19	32
71	O=C(O)CN1C(=O)/C(=C\c2ccccn2)SC1=S	-6	-9
72	O=C(CN1C(=O)COc2ccccc21)NCC(=O)Nc1cc(Cl)ccc1Cl	4	3
73	CN=C1SC(C(=O)Nc2ccc(C(=O)OC)cc2)CC(=O)N1C (stereo unspecified)	-8	-9
74	CCc1cc(N2CCN(C/C=C/c3ccccc3)CC2)nc(SCc2ccc(C(=O)NCCc3ccccn3)o2)n1	-4	-1
75	CCOC(=O)[C@H](CC(C)C)N1CC[C@@]2(CCCN2CC(=O)Nc2ccc3c(c2)CCC3)C1=O	3	8

Values by screen from the list:
Entries 63–68 in NPYLR7 ag max-min: 1, 1, -1, 3, 11, 5
Entries 63–68 in NPYLR7 ag: 4, 4, 2, 3, 9, 1

(next part)
entry	structure	NPYLR7 ag	NPYLR7 ag max-min
76	O=C(CSc1n[nH]c(=O)n1C1CC1)NCCSc1ccccc1	12	5
77	CCCC(C)c1nc(N2CCN(C(=O)COc3ccccc3)CC2)c2cnn(-c3ccccc3)c2n1 (stereo unspecified)	7	7
78	CC(C)(C)OC(=O)N1CCC(Oc2ccc(NC(=O)C3=Cc4cc(Cl)ccc4OC3)cc2)C1 (stereo unspecified)	-19	-26
79	Cc1cc(C(O)C(F)(F)F)c(C)n1CCC(C)C (stereo unspecified)	12&2	20&-1
80	CN(CCN(C)c1ccccn1)c1ccccn1	5	3
81	CC1(C)CCCC2(C)C1CCC1(C)OC(=O)CC12 (stereo unspecified)	-1	-2
82	O=C(Nc1cc(=O)c2ccccc2o1)N1CCCCC1	-4	-10
83	N#CCCN(CC1CCCO1)C(=O)c1ccc(N2CCCC2c2ccccc2)nc1 (stereo unspecified)	3	6
84	O=C1COc2ccc(CC(=O)N3CCC4(CCCO4)CC3)cc2N1	5	3
85	COC(=O)n1cnc2c(=O)[nH]cnc21	-12	-13
86	CCCOc1ccc(N2C(=O)CC(Nc3ccc(NC(C)=O)cc3)C2=O)cc1 (stereo unspecified)	2	-1
87	CC(C)n1c(-c2ccc(C(=O)N3CCN(C)CC3)cc2)nc2ccccc21	1	1
88	O=c1oc2c(c(O)c1-c1ccccc1)-c1ccccc1CC2	4	7
89	Cc1ccc(C2(O)CCN(C(=O)CC3C=CS(=O)(=O)C3)CC2)nc1 (stereo unspecified)	3	0
90	CCc1nccn1CC(=O)N1CCCC(CCc2cccc(C(F)(F)F)c2)C1 (stereo unspecified)	4	3
91	NCC1CCN(C(=O)c2ccc(NCc3ccncc3)cc2)C1 (stereo unspecified)	4	3
92	COc1ccc(C2Nc3ccccc3C(=O)N2Cc2ccco2)c(OC)c1OC (stereo unspecified)	-15	-16

One compound at a time, from the list above.
Record of CC(C)n1c(-c2ccc(C(=O)N3CCN(C)CC3)cc2)nc2ccccc21 = NPYLR7 ag = 1; NPYLR7 ag max-min = 1
Record of O=C1COc2ccc(CC(=O)N3CCC4(CCCO4)CC3)cc2N1 = NPYLR7 ag = 5; NPYLR7 ag max-min = 3

The list is partial. The share of hits here may be higher or lower than overall.
